Env fusion inh = inhibitors of HIV Env-mediated cell fusion. 360,000 compounds, 1.1% hits. AID 651610. inhibition, % at 12.3 µM. HeLa-JRFL Env/CEM21 cell fusion, luciferase;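 active = mean replicate inhibition score of at least 50 and every replicate individually at or above 50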;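 note: 0% = plate neutral controls and 100% = maraviroc near 300 nM; one replicate is shown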
UUG fidelity = modulators of start codon recognition fidelity in yeast. 350,000 compounds, 0.13% hits. activity score, % at 18.7 µM. S. cerevisiae UUG-firefly luciferase reporter, luminescence/redox ratio;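 active = replicate mean at a twofold rise or more, about +100% in these data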;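 note: firefly luciferase made from a UUG start codon reports start codon fidelity; reporter light over untreated wells divided by growth signal over untreated wells; some hits fall short of that in this replicate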
* marks the source's active call; other numbers are inactive results; & = joins results of further samples; [ ] = another dose, or the depositor's remark.

UUG fidelity	Env fusion inh	canonical_smiles
-14	10[16.7 µM]	C[C@@H]1CN([C@H](C)CO)S(=O)(=O)c2ccc(-c3ccccc3)cc2O[C@H]1CN(C)S(=O)(=O)c1ccccc1F
-15	-1[16.7 µM]	O=C(Nc1ccccc1F)N[C@@H]1CC[C@H](CCNC(=O)C2CC2)O[C@H]1CO
211*	-10[16.7 µM]	Cc1ccccc1S(=O)(=O)NCC[C@H]1CC[C@H](NC(=O)C2CCCCC2)[C@H](CO)O1
8	-29[16.7 µM]	C[C@@H]1CN([C@H](C)CO)S(=O)(=O)c2ccc(-c3ccc(C#N)cc3)cc2O[C@H]1CN(C)C(=O)C1CC1
-6	2[16.7 µM]	O=C(NCC[C@H]1CC[C@H](NC(=O)C2CCCCC2)[C@H](CO)O1)c1cc(Cl)cc(Cl)c1
-17	6[16.7 µM]	Cc1ccccc1S(=O)(=O)N1[C@H](C#N)[C@@H](c2ccc(C#CC3CCCCC3)cc2)[C@@H]1CO
-11	-3[16.7 µM]	COC(=O)C[C@@H]1C[C@H]2c3cc(NC(=O)c4cccnc4)ccc3O[C@H]2[C@@H](CO)O1
-1	-4[16.7 µM]	C[C@@H]1CN([C@@H](C)CO)S(=O)(=O)c2ccc(-c3cncnc3)cc2O[C@@H]1CN(C)C(=O)C1CCCCC1
8	-20[16.7 µM]	C[C@@H]1CN([C@H](C)CO)C(=O)c2cc(C#CC3CC3)cnc2O[C@@H]1CN(C)C
-1	-32[16.7 µM]	C[C@H]1CN([C@@H](C)CO)S(=O)(=O)c2ccc(C#CCN(C)C)cc2O[C@H]1CN(C)Cc1ccccc1F

Entries listed so far that contain fluorine:
UUG fidelity	Env fusion inh	canonical_smiles
-14	10[16.7 µM]	C[C@@H]1CN([C@H](C)CO)S(=O)(=O)c2ccc(-c3ccccc3)cc2O[C@H]1CN(C)S(=O)(=O)c1ccccc1F
-15	-1[16.7 µM]	O=C(Nc1ccccc1F)N[C@@H]1CC[C@H](CCNC(=O)C2CC2)O[C@H]1CO
-1	-32[16.7 µM]	C[C@H]1CN([C@@H](C)CO)S(=O)(=O)c2ccc(C#CCN(C)C)cc2O[C@H]1CN(C)Cc1ccccc1F

New compounds follow.
UUG fidelity	Env fusion inh	canonical_smiles
-12	-30[16.7 µM]	COc1ccc(CN(C)C[C@H]2Oc3c(NC(=O)C4CCCCC4)cccc3C(=O)N([C@H](C)CO)C[C@H]2C)cc1
-5	25[16.7 µM]	C[C@@H]1CCCCO[C@@H](CN(C)S(=O)(=O)c2cn(C)cn2)[C@H](C)CN([C@H](C)CO)C(=O)c2cc(NC(=O)Nc3ccc(C(F)(F)F)cc3)ccc2O1
-1	25[16.7 µM]	CCNC(=O)C[C@@H]1CC[C@H]2[C@H](COc3ccc(NC(=O)Nc4ccccc4F)cc3C(=O)N2C)O1
1	-8[16.7 µM]	CC(C)C#Cc1ccc2c(c1)O[C@H](CN(C)Cc1cccnc1)[C@@H](C)CN([C@H](C)CO)S2(=O)=O
5	6[16.7 µM]	CN1CCN(C(=O)C[C@@H]2CC[C@H]3[C@@H](COC[C@H](O)CN3C(=O)Nc3ccc4c(c3)OCO4)O2)CC1
-9	14[16.7 µM]	COCC(=O)Nc1ccc2c(c1)C(=O)N(C)[C@@H]1CC[C@H](CC(=O)NCc3ccc(OC)cc3)O[C@H]1CO2
6	-102[16.7 µM]	C[C@H](CO)N1C[C@H](C)[C@H](CN(C)Cc2ccc(C(=O)Nc3ccccc3N)cc2)Oc2ccc(NS(=O)(=O)c3ccc(F)cc3)cc2CC1=O
17	15[16.7 µM]	O=S(=O)(N[C@H]1CC[C@H](CCn2cc(C3(O)CCCC3)nn2)O[C@H]1CO)c1ccc(Cl)cc1
2	55*[16.7 µM]	C[C@@H]1CCCCO[C@@H](CN(C)Cc2ccc(C(F)(F)F)cc2)[C@H](C)CN([C@@H](C)CO)C(=O)c2cc(NC(=O)Nc3ccc4c(c3)OCO4)ccc2O1
-11	11[16.7 µM]	Cc1noc(C)c1S(=O)(=O)Nc1ccc2c(c1)CC(=O)N([C@@H](C)CO)C[C@@H](C)[C@H](CN(C)Cc1ccc(C(=O)O)cc1)O2
-6	4[16.7 µM]	O=C(O)C[C@H]1C[C@@H]2c3cc(NC(=O)C4CCC4)ccc3O[C@@H]2[C@H](CO)O1
-3	4	Cc1cccc(NC(=O)C(C)OC(=O)CNC(=O)C2CCCCC2)c1 (stereo not given)
-8	-5[16.7 µM]	Cc1noc(C)c1S(=O)(=O)Nc1ccc2c(c1)C(=O)N([C@H](C)CO)C[C@H](C)[C@H](CN(C)C(=O)Nc1ccc(C(F)(F)F)cc1)OCCCC[C@@H](C)O2
5	19[16.7 µM]	N#C[C@H]1[C@@H](c2ccc(/C=C/c3ccccc3)cc2)[C@@H](CO)N1C(=O)C1CCCCC1
9	-111[16.7 µM]	C[C@@H]1CN([C@H](C)CO)C(=O)c2cc(NC(=O)C3CCCCC3)ccc2O[C@@H](C)CCCCO[C@@H]1CN(C)C(=O)Nc1cccc2ccccc12
-10	28[16.7 µM]	C[C@@H]1CCCCO[C@H](CN(C)S(=O)(=O)c2cccs2)[C@@H](C)CN([C@H](C)CO)C(=O)c2cc(NC(=O)Nc3ccc(C(F)(F)F)cc3)ccc2O1
4	42[16.7 µM]	C[C@]1(C(=O)NCc2ccccc2)c2ccccc2C(=O)N(Cc2ccc(OC(F)(F)F)cc2)[C@H]1c1ccc(CO)cc1
3	4[16.7 µM]	CCCC(=O)Nc1ccc2c(c1)OC[C@H](C)N(C(C)=O)C[C@@H](C)[C@@H](OC)CN(C)C2=O
-9	8[16.7 µM]	C[C@H](CO)N1C[C@H](C)[C@H](CN(C)S(=O)(=O)c2cccs2)Oc2ccc(NC(=O)NC3CCCCC3)cc2C1=O
-1	10[16.7 µM]	COc1ccc(NC(=O)N(C)C[C@@H]2Oc3c(NC(=O)C4CC4)cccc3C(=O)N([C@H](C)CO)C[C@@H]2C)cc1
-15	9[16.7 µM]	COCC(=O)Nc1ccc2c(c1)[C@@H]1C[C@H](CC(=O)NCc3ccc(-c4ccccc4)cc3)O[C@H](CO)[C@@H]1O2
13	-19[16.7 µM]	Cc1noc(C)c1NC(=O)Nc1ccc2c(c1)C(=O)N([C@@H](C)CO)C[C@H](C)[C@@H](CN(C)Cc1ccc(C(F)(F)F)cc1)OCCCC[C@@H](C)O2
10	-12[16.7 µM]	CCCN1C[C@@H](C)[C@H](OC)CN(C)C(=O)c2cc(NC(=O)C3CCOCC3)ccc2OC[C@@H]1C
-4	-1[16.7 µM]	COc1ccc(CN(C)C[C@H]2Oc3ccc(NS(C)(=O)=O)cc3CC(=O)N([C@H](C)CO)C[C@@H]2C)cc1
6	20[16.7 µM]	O=C(Nc1ccc2c(c1)OCO2)N[C@@H]1C=C[C@@H](CC(=O)N2CCN(c3ccccc3)CC2)O[C@@H]1CO
6	-14[16.7 µM]	C[C@@H]1CCCCO[C@@H](CN(C)C(=O)CCCN(C)C)[C@@H](C)CN([C@H](C)CO)C(=O)c2cc(NC(=O)c3ccccc3)ccc2O1
1	-6[16.7 µM]	C[C@H]1CCCCO[C@@H](CN(C)Cc2ccccc2)[C@@H](C)CN([C@@H](C)CO)C(=O)c2cc(NS(=O)(=O)c3ccccc3)ccc2O1
-10	0[16.7 µM]	CNC[C@@H]1OCCCC[C@H](C)Oc2ccc(N(C)C)cc2C(=O)N([C@H](C)CO)C[C@@H]1C
6	3[16.7 µM]	Cc1noc(C)c1S(=O)(=O)Nc1ccc2c(c1)CC(=O)N([C@H](C)CO)C[C@H](C)[C@H](CN(C)C(=O)Nc1cccc3ccccc13)O2
-4	-22[16.7 µM]	COc1ccc(NC(=O)Nc2ccc3c(c2)C(=O)N([C@@H](C)CO)C[C@@H](C)[C@@H](CN(C)S(=O)(=O)c2cccs2)OCCCC[C@H](C)O3)cc1

Three of the compounds above, with values under each structure.
Sequence of screens – UUG fidelity, Env fusion inh
> COc1ccc(CN(C)C[C@H]2Oc3ccc(NS(C)(=O)=O)cc3CC(=O)N([C@H](C)CO)C[C@@H]2C)cc1
  -4, -1[16.7 µM]
> O=C(Nc1ccc2c(c1)OCO2)N[C@@H]1C=C[C@@H](CC(=O)N2CCN(c3ccccc3)CC2)O[C@@H]1CO
  6, 20[16.7 µM]
> Cc1noc(C)c1NC(=O)Nc1ccc2c(c1)C(=O)N([C@@H](C)CO)C[C@H](C)[C@@H](CN(C)Cc1ccc(C(F)(F)F)cc1)OCCCC[C@@H](C)O2
  13, -19[16.7 µM]

(next part)
UUG fidelity	Env fusion inh	canonical_smiles
-5	3[16.7 µM]	C[C@@H]1CN([C@H](C)CO)C(=O)CCCn2nncc2CO[C@@H]1CN(C)Cc1ccc(O)cc1
19	-13[16.7 µM]	COc1ccc(NC(=O)Nc2ccc3c(c2)C(=O)N([C@@H](C)CO)C[C@H](C)[C@@H](CN(C)S(=O)(=O)c2c(C)noc2C)OCCCC[C@@H](C)O3)cc1
-15	-6[16.7 µM]	C[C@@H]1CN([C@@H](C)CO)S(=O)(=O)c2ccc(-c3cccnc3)cc2O[C@@H]1CN(C)Cc1cncnc1
-5	23[16.7 µM]	C/C=C/c1ccc2c(c1)O[C@@H](CN(C)Cc1ccccc1F)[C@H](C)CN([C@@H](C)CO)S2(=O)=O
27	-10[16.7 µM]	C[C@H](CO)N1C[C@H](C)[C@@H](CN(C)C(=O)C2CC2)Oc2ncc(C#Cc3cccc(F)c3)cc2C1=O
-11	-7[16.7 µM]	C[C@H]1CN([C@@H](C)CO)C(=O)Cc2cc(NC(=O)c3ccncc3)ccc2O[C@H]1CN(C)S(=O)(=O)c1cccs1
8	-12[16.7 µM]	O=C(Cc1ccncc1)NCC[C@@H]1CC[C@H](NC(=O)C2CCCCC2)[C@@H](CO)O1
3	-66[16.7 µM]	Cc1ccc(S(=O)(=O)Nc2ccc3c(c2)C(=O)N([C@@H](C)CO)C[C@H](C)[C@@H](CN(C)C(=O)Nc2ccc(F)cc2)OCCCC[C@@H](C)O3)cc1
-12	-147[16.7 µM]	CCCc1cn(CC[C@@H]2CC[C@H](NC(=O)Nc3ccc4c(c3)OCO4)[C@H](CO)O2)nn1
-1	-28[16.7 µM]	Cc1noc(C)c1NC(=O)N(C)C[C@H]1OCCCC[C@@H](C)Oc2ccc(NS(=O)(=O)c3ccccc3)cc2C(=O)N([C@@H](C)CO)C[C@H]1C
-20	4[16.7 µM]	C=CCNC(=O)[C@H]1[C@@H]2C(=O)O[C@@H](c3ccccc3)[C@@H](c3ccccc3)N2[C@@H](c2ccc(O)cc2)[C@]12C(=O)N(C(=O)OCCOC)c1ccc(C#Cc3ccc(OC)cc3)cc12
4	15[16.7 µM]	CO[C@H]1CN(C)C(=O)c2ccc(NC(=O)c3ccc(F)cc3)cc2OC[C@H](C)N(C(=O)c2ccc(F)cc2)C[C@@H]1C
17	3[16.7 µM]	Cc1ccc(S(=O)(=O)N(C)C[C@H]2OCCCC[C@@H](C)Oc3ccc(NC(=O)NC4CCCCC4)cc3C(=O)N([C@H](C)CO)C[C@H]2C)cc1
-1	6[16.7 µM]	COc1ccc(NC(=O)N(C)C[C@@H]2Oc3c(cccc3N(C)C)C(=O)N([C@H](C)CO)C[C@H]2C)cc1
-3	-20[16.7 µM]	C[C@@H]1CN([C@H](C)CO)C(=O)Cc2cc(NC(=O)Nc3cccc4ccccc34)ccc2O[C@@H]1CN(C)Cc1ccc(C(F)(F)F)cc1
-1	-13[16.7 µM]	C[C@@H]1CN([C@@H](C)CO)S(=O)(=O)c2ccc(C#C[C@@H](C)O)cc2O[C@@H]1CN(C)Cc1cccnc1
11	-13[16.7 µM]	Cc1ccc(S(=O)(=O)Nc2ccc3c(c2)CC(=O)N([C@@H](C)CO)C[C@@H](C)[C@@H](CN(C)C(=O)Nc2c(C)noc2C)O3)cc1
9	3[16.7 µM]	COc1ccc(NC(=O)N(C)C[C@H]2OCCCC[C@H](C)Oc3ccc(NS(=O)(=O)c4ccc(F)cc4)cc3C(=O)N([C@@H](C)CO)C[C@@H]2C)cc1
49	-17[16.7 µM]	COc1ccc(S(=O)(=O)N(C)C[C@H]2OCCCC[C@H](C)Oc3ccc(N(C)C)cc3C(=O)N([C@@H](C)CO)C[C@@H]2C)cc1
-9	5[16.7 µM]	C[C@@H]1CN([C@H](C)CO)C(=O)c2cc(-c3cccc(C#N)c3)cnc2O[C@@H]1CN(C)Cc1ccccc1
13	9[16.7 µM]	COc1ccc(NC(=O)N[C@H]2CC[C@H](CCNS(=O)(=O)c3ccccc3F)O[C@H]2CO)cc1
-10	-26[16.7 µM]	COc1ccc(-c2ccc([C@H]3[C@@H](C#N)N(C(=O)C4CC4)[C@@H]3CO)cc2)cc1
-5&-4	-7&-6[16.7 µM]	COc1ccc(-c2cnc3c(c2)C(=O)N([C@H](C)CO)C[C@H](C)[C@H](CN(C)C(=O)NC2CCCC2)O3)cc1
0	-25[16.7 µM]	Cc1ccc(S(=O)(=O)N(C)C[C@@H]2OCCCC[C@H](C)Oc3ccc(NC(=O)CCCN(C)C)cc3C(=O)N([C@@H](C)CO)C[C@H]2C)cc1
-2	-31[16.7 µM]	Cc1noc(C)c1NC(=O)N(C)C[C@H]1OCCCC[C@@H](C)Oc2ccc(NS(C)(=O)=O)cc2C(=O)N([C@H](C)CO)C[C@H]1C

Structures above printed as active in Env fusion inh:
UUG fidelity	Env fusion inh	canonical_smiles
2	55*[16.7 µM]	C[C@@H]1CCCCO[C@@H](CN(C)Cc2ccc(C(F)(F)F)cc2)[C@H](C)CN([C@@H](C)CO)C(=O)c2cc(NC(=O)Nc3ccc4c(c3)OCO4)ccc2O1

Only part of the results is shown; the hit share may differ from the screen's.
